D2 ag = agonists of human D2 dopamine receptor (beta-arrestin) | DiscoveRx PathHunter D2 beta-arrestin, luminescence, 90 min; 100% = 57 uM dopamine signal | activation, % (concentration not given with the values) | actives 0.084% (n = 360,000) | AID 624465; in the data active = activation above about 40%; inconclusive = about 15% to 40%; inactive = below about 15%; note: compound concentration not given in the record; the text of the record calls up to 30% inactive
Target sequence (P14416 whole entry, looked up): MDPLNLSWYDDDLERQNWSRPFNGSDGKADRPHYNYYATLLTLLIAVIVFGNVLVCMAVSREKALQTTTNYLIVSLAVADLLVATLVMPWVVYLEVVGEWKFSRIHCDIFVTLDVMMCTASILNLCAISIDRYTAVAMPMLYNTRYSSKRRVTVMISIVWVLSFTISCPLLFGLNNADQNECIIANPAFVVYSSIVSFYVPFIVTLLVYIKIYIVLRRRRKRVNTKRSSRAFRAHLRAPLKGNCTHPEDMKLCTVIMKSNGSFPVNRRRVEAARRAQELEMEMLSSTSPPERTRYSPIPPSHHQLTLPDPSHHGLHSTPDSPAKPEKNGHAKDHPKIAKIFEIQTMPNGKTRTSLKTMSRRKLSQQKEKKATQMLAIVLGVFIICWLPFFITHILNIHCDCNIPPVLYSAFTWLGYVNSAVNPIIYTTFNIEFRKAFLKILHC
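DiscoveRx PathHunter D2 beta-arrestin cells (2,100/well) attached overnight, then compound-stimulated 90 min at 37 C in HBSS/10 mM HEPES/0.1% Tween-20 buffer; beta-galactosidase complementation read by luminescence after 1 h at ambient temperature. Dopamine 57 uM final (EC100) as control.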
TRPML1 inh = inhibitors of human TRPML1 channel; Q9GZU1; TRPML1-inducible cells, Ca2+ dye fluorescence, FDSS; stronger effect = lower value; inhibition of EC80 agonist-evoked calcium signal; activity change, negative = inhibition, % (no concentration beside the values); actives 0.02% (n = 390,000); in the data active means activity change below about -50%; inconclusive means about -30% to -50%; inactive means above about -30%;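 note: stimulus is agonist 54-4 at its EC80 concentration; % is set by controls: 0 for no effect and ±100 for the full control effect; compound concentration not given in the record; the text of the record puts the active cut at -80%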
Target sequence (Q9GZU1 whole entry, looked up): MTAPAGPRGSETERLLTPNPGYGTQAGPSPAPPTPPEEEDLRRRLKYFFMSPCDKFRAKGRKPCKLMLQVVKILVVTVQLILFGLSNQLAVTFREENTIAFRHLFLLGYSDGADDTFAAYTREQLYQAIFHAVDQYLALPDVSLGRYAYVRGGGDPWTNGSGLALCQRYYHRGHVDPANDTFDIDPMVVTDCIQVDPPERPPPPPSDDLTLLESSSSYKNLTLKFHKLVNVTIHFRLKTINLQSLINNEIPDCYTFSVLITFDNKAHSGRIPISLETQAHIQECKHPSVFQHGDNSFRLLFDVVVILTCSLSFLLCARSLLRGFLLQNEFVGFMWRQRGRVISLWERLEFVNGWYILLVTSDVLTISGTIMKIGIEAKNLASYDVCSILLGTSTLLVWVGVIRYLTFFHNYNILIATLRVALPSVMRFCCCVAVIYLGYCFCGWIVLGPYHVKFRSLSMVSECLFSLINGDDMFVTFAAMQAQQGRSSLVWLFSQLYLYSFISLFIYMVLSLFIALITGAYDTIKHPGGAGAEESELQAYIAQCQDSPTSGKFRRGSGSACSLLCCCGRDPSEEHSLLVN
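Calcium fluorescence in TRPML1-DL cells induced overnight with Tet: a 110 s read after compound pin addition, then a 110 s antagonist read after challenge with 54-4 at 4 uM final (EC80).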
Six1-Eya2 blk = inhibitors of human Six1/Eya2 interaction; Q15475+O00167; activity change, % (concentration not given with the values); AID 651725; AlphaScreen GST-Six1/His-Eya2 binding, biochemical; stronger effect = lower value; control for the full effect not named in the record; actives 0.56% (n = 360,000); in the data active = activity change below about -65%; inconclusive = about -30% to -65%; inactive = above about -30%; note: % is set by controls: 0 for no effect and ±100 for the full control effect
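AlphaScreen with GST-Six1 and His-Eya2 (5X mix: 250 nM and 500 nM), glutathione donor and nickel acceptor beads; buffer 50 mM Tris pH 8.0, 300 mM NaCl, 1 mM TCEP; 1 h at 37 C in the dark.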
PINK1 expr mod = changes PINK1 expression; PINK1 immunofluorescence, high-content cytometry, 24 h; Potency, µM (doses to about 76.6 µM), for the others: at the top dose activation (PINK1 increase), hits mostly activators; actives 0.2% (n = 410,000); AID 624263; active = well fitted activation curve with a large enough effect; inconclusive = small, poorly fitted or top-dose-only effect; inactive = flat fitted curve, though single readings scatter; cell line not stated here;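 note: potency is the fitted concentration of half-maximal effect; % of control where 0% means no effect; nearly all actives have a fitted effect of over 65% in size; a mitochondrial uncoupler was the plate control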
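Decision-based qHTS: stable cells, 24 h exposure to five compound concentrations, CCCP as control. Fixed cells stained for PINK1 plus nuclear, mitochondrial and cell markers, cytometer read.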
TRPML1 ag = agonists of human TRPML1 channel. Q9GZU1. TRPML1-expressing cells, Ca2+ dye fluorescence, FDSS; host cell line not named in the record; reference of the full effect not given here. activation, % (concentration not given with the values). actives 0.12% (n = 410,000). AID 624414; in the data active = activation above about 50%; inconclusive = about 30% to 50%; inactive = below about 30%; note: 0% is about no effect; the text of the record puts the active cut at 80%
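Cells: TRPML1-DL, 1X Tet inducer, ~16 h at 37 degrees C/5% CO2. Dye: ABD Ca8 no-wash + quencher, 45-90 min RT. Read: 10 s baseline, compound add, 110 s agonist phase; 54-4 EC80 (4uM final), 110 s antagonist phase.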
D2 potentiator = potentiates the human D2 dopamine receptor allosterically | actives 0.23% (n = 360,000) | P14416 | DiscoveRx D2 beta-arrestin cells, luminescence, 90 min; 100% = 57 uM dopamine signal | potentiation, % (concentration not given with the values) | AID 624464; active = potentiation of 50% or more; inconclusive = 30% to 50%; inactive = 30% or less;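 note: compound concentration not given in the record; tested on top of an EC20 dose of dopamine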
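PathHunter D2 cells, attached overnight at 37 deg C, received compound in DMSO plus dopamine at EC20 (50 nM final) for 90 min at 37 deg C. Beta-arrestin recruitment was read as luminescence after 1 h with detection reagent at ambient temperature.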
The depositor's hits bear a star; ? = inconclusive; nt = no result given; [ ] = dose if it differs, or a comment.

Values run as follows: D2 ag, TRPML1 ag, Six1-Eya2 blk, D2 potentiator, TRPML1 inh, PINK1 expr mod
- Cc1ccc(Cl)cc1NS(=O)(=O)c1ccc2oc(=O)ccc2c1
  -0.1, 0.3, -5, -9, 1, 2.0%
- O=C(Cc1ccc(S(=O)(=O)N2CCOCC2)s1)NCC(=O)Nc1ccccc1Br
  -0.5, -0.2, 0, -5, 8, 0.2%
- COc1ccc(NC(=O)Nc2nnc(C(C)C)s2)cc1
  -1.9, 4.6, -11, -3, 29, -0.8%[38.3 µM]
- CCC(C)OC(=O)/C(C#N)=C\c1ccc(-c2ccccc2Cl)o1 (configuration not stated)
  nt, 0.2, nt, nt, 27, 1.8%
- Clc1cccc(NCc2cn3cccnc3n2)c1
  -1.7, 0.2, 22, 2, 9, -2.1%
- COc1ccc(/C=N/Nc2nccnc2Cl)c(OC)c1
  -3.5, -0.8, 0, -4, -9, 2.7%
- CC(=O)c1sc(Nc2nc3cc4c(cc3s2)OCO4)nc1C
  -1.9, -0.2, -3, -9, 17, 10%
- Cc1ccccc1NC(=S)N1CCC(NC(=O)c2ccco2)CC1
  -2.9, 0.1, 5, -2, 1, 3.5%
- Cc1cc(C)n(C(=O)CSc2nc3ccccc3o2)n1
  -0.8, 1.2, 1, -2, 17, ?
- Cc1cc(-c2ccccc2)n2nc(-c3ccccc3)cc2n1
  nt, 1.5, nt, nt, 11, -1.2%
- NC(=O)C(c1ccc(Br)cc1)c1ccc(C(=O)c2ccccc2)cc1 (configuration not stated)
  4.4, -0.3, -6, 1, 9, 2.4%
- Cc1cc(NC(=O)C2CCN(S(=O)(=O)c3cccs3)CC2)no1
  -1.6, -0.7, -7, 4, 7, 0.7%
- O=C(COc1ccccc1F)Nc1ccc(N2CCOCC2)cc1N1CCOCC1
  -5.5, 0.6, -3, -18, 2, 1.7%
- CC1=C(C(=O)N2CCOCC2)C(c2ccc(-c3ccccc3)cc2)NC(=S)N1 (configuration not stated)
  6.5, 0.4, -7, -15, 12, 2.7%
- COc1ccc(N2CCN(C(=O)CSc3nnc(CNc4ccccc4)o3)CC2)cc1
  -0.2, 0.7, -5, -4, -29, 4.9%[38.3 µM]
- O=C(COc1cccc2cccnc12)N1CCc2ccccc2C1
  -3.8, -0.3, -3, -38, 0, -1.0%
- O=c1c2ccccc2oc2cc(NCCCN3CCOCC3)ccc12
  1.0, 0.3, -16, -9, 23, 0.8%
- COc1ccc(C2(OC)Oc3cc(OC)ccc3C(=O)C2(O)OC)cc1 (configuration not stated)
  -1.9, 0.4, 39, -9, -8, 15%
- CC(C)C(=O)Nc1nc2cc3c(cc2s1)OCCO3
  5.8, 1.7, 6, 0, 59, 0.9%
- O=C(Nc1cccc([N+](=O)[O-])c1)N1CCCCCC1
  -4.4, 0.4, -2, -20, 2, -0.7%
- CCCS(=O)(=O)Nc1cc(C(F)(F)F)ccc1OCCOC
  -0.9, -0.3, 7, -6, 4, nt
- CCOc1ccc(C2CC(c3ccc(CC)cc3)n3nc(N)nc3N2)cc1 (configuration not stated)
  -7.2, 1.1, 0, -2, -9, 1.1%
- Cc1oc2c(CN3CCOCC3)c(O)ccc2c(=O)c1-c1ccc(Cl)cc1
  1.0, 1.0, 2, 0, 29, 0.7%
- COc1ccc(C)cc1NC(=O)NCc1ccco1
  -3.3, -0.5, -2, -6, 16, -1.1%
- O=C(NCc1ccc(F)cc1)c1c(O)nc2ccccn2c1=O
  nt, -1.5, nt, nt, -5, 1.3%
- COc1ccc(CN2C[C@]3(CO)O[C@@H](CO)C[C@@H]3S2(=O)=O)cc1
  -3.8, 0.1, 3, -3, -4, 0.4%
- CCOC(=O)C1=C(CBr)NC(=O)NC1C (configuration not stated)
  -1.0, -0.1, 1, -18, 1, -0.2%
- COC(=O)[C@]12CCCCC=C1N(Cc1cccc3ccccc13)C(=O)[C@H](CC(=O)N1CCC(c3ccccc3)CC1)C2
  nt, -0.2, -15, nt, nt, 1.8%
- O=C(N[C@H]1C/C=C\C[C@@H](CC(=O)N(CCO)Cc2ccccc2)C(=O)N[C@H](Cc2c[nH]c3ccccc23)COC1=O)OCC1c2ccccc2-c2ccccc21
  -8.7, -0.4, -6, -8, -3, -0.2%
- Cc1ccc(S(=O)(=O)N(C)C)cc1NC(=O)c1cc(=O)c2ccccc2o1
  -7.9, -1.0, -10, -2, -5, -0.4%

The list continues.
Values run as follows: D2 ag, TRPML1 ag, Six1-Eya2 blk, D2 potentiator, TRPML1 inh, PINK1 expr mod
- CCOCc1nc(N)nc(N)c1-c1cccc(Cl)c1
  -0.9, -0.2, 6, -3, -6, -1.0%
- O=C(Nc1ccc2nc(-c3cccnc3)[nH]c2c1)C1CCCCC1
  -0.7, 0.1, -26, -9, -10, 11%
- COc1cc2c(cc1OC)[C@@H](NC(=O)COc1ccccc1)[C@H](OCc1ccccc1)C2
  -2.0, -0.5, -8, -1, 11, 3.4%
- COc1ccc(NC(=O)Cn2c(=O)n(-c3ccc(CC(=O)NCC4CCCO4)cc3)c(=O)c3ccccc32)c(OC)c1 (configuration not stated)
  nt, 0.1, nt, nt, -8, 0.8%
- CCOC(=O)C1CCN(S(=O)(=O)c2cccc(-c3csc(C)n3)c2)CC1
  1.3, 0.3, 0, 5, 3, 1.6%
- CCc1nn(CCCC(=O)N2CCN(c3cc(Cl)ccc3C)CC2)c(=O)c2cc3occc3n12
  nt, 1.7, nt, nt, 6, -1.2%
- CCCC(=O)Nc1cc(OC)c(NC(=S)Nc2ccc(CC)cc2)cc1OC
  -1.1, 0.8, -11, 5, -2, 3.8%
- CCOC(=O)c1ccc(NC(=O)NNC(=O)CCc2ccc(OC)cc2)cc1
  -2.7, -0.2, 2, -6, 23, 0.0%
- CC(C)Oc1nnnn1-c1ccccc1
  0.0, -0.6, 6, -6, 11, 2.2%
- CCCN(Cc1ccccc1)C(=S)Nc1ccc(F)cc1
  -0.4, 2.1, 2, -2, -21, -2.1%
- O=C(NCc1ccc(F)cc1)c1ccc2c(c1)S(=O)(=O)c1ccccc1C2=O
  3.4, -0.3, -15, 0, -5, 0.8%
- O=C(CCNS(=O)(=O)c1ccc(Cl)cc1)OCC(=O)N1CCN(C(=O)c2ccco2)CC1
  -1.7, 0.3, -3, 0, 13, -3.6%
- Cc1ccc(-c2csc3ncn(CC(=O)N4CCOCC4)c(=O)c23)cc1C
  -4.3, -0.4, -3, -10, -6, 2.6%
- COCCNC(=O)COc1ncnc2scc(-c3ccc(F)cc3)c12
  1.5, 3.4, 2, -8, 2, 0.9%
- Cc1ccc(N(C=NC#N)CC(=O)N2CCN(c3ccccc3)CC2)cc1
  -6.1, -0.6, -2, -17, 8, -0.5%
- CC(C)c1ccc(C(O)Cc2nc3ccccc3n2C)cc1 (configuration not stated)
  2.1, 0.9, 5, -10, -8, 0.8%
- COc1ccc(CN(C)C(=S)Nc2ccc(OC(F)F)cc2)cc1
  1.0, 0.5, -10, 0, 14, -2.4%
- COC(=O)CN1C(=O)[C@H]2[C@@H](/C=C/c3ccccc3)N3C(=O)CN(Cc4ccccc4)C(=O)[C@@]3(C)[C@H]2C1=O
  -0.6, -0.4, 5, -12, 6, 1.7%
- COc1cc(OC)c(C(=O)OC(C)C(=O)NCc2ccc3c(c2)OCO3)cc1OC (configuration not stated)
  3.0, -0.8, -5, -4, -10, -2.8%
- CCn1nc(C)c2c(-c3ccccc3)cc(=O)n(C(C)C(=O)NCCc3ccccc3)c21 (configuration not stated)
  nt, 2.9, nt, nt, 42, ?
- Cc1cc(C)c2c(CC(=O)Nc3ccc(S(=O)(=O)N4CCCC(C)C4)cc3)coc2c1 (configuration not stated)
  nt, 0.7, nt, nt, -6, -1.2%
- COc1ccc(-c2cc(CC3(C(=O)O)CCN(C(=O)OC(C)(C)C)CC3)on2)c(OC)c1
  -1.2, -0.2, 9, -2, -6, 0.8%
- N=c1ccn(CC(=O)c2ccc(-c3ccccc3)cc2)cc1
  -2.1, -1.0, 3, -1, -16, ?
- CCOc1ccccc1N1CCN(C(=O)c2ccc(Cl)c(S(=O)(=O)N3CCCCC3)c2)CC1
  -2.9, 1.0, -1, -3, -1, 0.3%
- Cc1ccc(OCC(=O)NCC(=O)Nc2ccc(F)cc2)c([N+](=O)[O-])n1
  -3.2, -0.2, -2, -15, 12, 0.5%
- CCCC(CCC)C(=O)Nc1cccc(C(=O)O)c1
  1.1, 0.6, 9, 1, 8, -0.4%[38.3 µM]
- CCN(CC)S(=O)(=O)c1ccc(/C=C/C(=O)OCC(=O)Nc2ccc(S(N)(=O)=O)cc2)cc1
  -2.0, 0.0, 2, 4, 41, 0.5%
- COc1ccc(C2C3=C(CCCC3=O)Nc3nc(C(F)(F)F)nn32)cc1OC (configuration not stated)
  -1.7, -0.7, -2, 1, -2, -1.6%
- O=C1CSC(=S)N1Cc1ccccc1
  -2.8, 0.4, -3, -13, 14, 4.0%
- Cc1ccccc1OCC(=O)Nc1ccc(C(N)=O)cc1
  0.7, 0.2, -1, ?, 1, 0.4%
- Cc1cc2cc(C(c3nnnn3Cc3ccco3)N3CCc4ccccc4C3)c(=O)[nH]c2cc1C (configuration not stated)
  -2.7, -0.4, -5, -3, 29, 1.0%

Sorted by molar mass (ascending): part of the list above
Values run as follows: D2 ag, TRPML1 ag, Six1-Eya2 blk, D2 potentiator, TRPML1 inh, PINK1 expr mod
- CCCN(Cc1ccccc1)C(=S)Nc1ccc(F)cc1
  -0.4, 2.1, 2, -2, -21, -2.1%
- COc1ccc(CN(C)C(=S)Nc2ccc(OC(F)F)cc2)cc1
  1.0, 0.5, -10, 0, 14, -2.4%
- CCOC(=O)c1ccc(NC(=O)NNC(=O)CCc2ccc(OC)cc2)cc1
  -2.7, -0.2, 2, -6, 23, 0.0%
- CCCC(=O)Nc1cc(OC)c(NC(=S)Nc2ccc(CC)cc2)cc1OC
  -1.1, 0.8, -11, 5, -2, 3.8%
- CCc1nn(CCCC(=O)N2CCN(c3cc(Cl)ccc3C)CC2)c(=O)c2cc3occc3n12
  nt, 1.7, nt, nt, 6, -1.2%
